Rango dissoc inh – qHTS Assay for Inhibitors of RanGTP induced Rango (Ran-regulated importin-beta cargo) - Importin beta complex dissociation; 340,000 compounds, 0.071% hits; Biochemical FRET Rango-importin beta, RanGTP-induced dissociation; Potency, µM (titrated, usually from 46.1 µM), inactives show at the top dose activity change, negative = inhibition; active means falling FRET ratio curve, often poorly fitted, with flat reads before Ran was added; inconclusive means other falling curves, or compound fluorescence or quenching; inactive means flat or rising ratio curve;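 further: potency means the concentration at half of the fitted maximal effect; % of control where 0% means no effect; nearly all actives have a fitted effect of over 45% in size; -100% = wells without RanGTP and RCC1; the record marks most hits as doubtful in a second field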
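Two FRET readings bracket the reaction: one 5 min after compound meets Rango–importin beta, another 45 min after RanGTP-RCC1 (0.6 uM Ran, 0.2 uM RCC1, 2 mM GTP) is added. Only the second defines inhibition.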
Rango complex inh – qHTS Assay for Inhibitors of Rango (Ran-regulated importin-beta cargo) - Importin beta complex formation | Rango CFP/YFP FRET sensor + importin beta, 45 min | Potency, µM (titrated, usually from 92.2 µM), without a hit: at the top dose inhibition of complex formation | 340,000 compounds, 0.031% hits | AID 540263, 2011; active = rising FRET ratio curve, often small or poorly fitted; inconclusive = mostly compound fluorescence or quenching in the first reads; inactive = flat curves in all reads;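 further: potency means the concentration at half of the fitted maximal effect; 0% = DMSO wells and 100% = buffer wells lacking importin beta; nearly all actives have a fitted effect of over 15% in size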
Target sequence (Q14974 whole entry, looked up): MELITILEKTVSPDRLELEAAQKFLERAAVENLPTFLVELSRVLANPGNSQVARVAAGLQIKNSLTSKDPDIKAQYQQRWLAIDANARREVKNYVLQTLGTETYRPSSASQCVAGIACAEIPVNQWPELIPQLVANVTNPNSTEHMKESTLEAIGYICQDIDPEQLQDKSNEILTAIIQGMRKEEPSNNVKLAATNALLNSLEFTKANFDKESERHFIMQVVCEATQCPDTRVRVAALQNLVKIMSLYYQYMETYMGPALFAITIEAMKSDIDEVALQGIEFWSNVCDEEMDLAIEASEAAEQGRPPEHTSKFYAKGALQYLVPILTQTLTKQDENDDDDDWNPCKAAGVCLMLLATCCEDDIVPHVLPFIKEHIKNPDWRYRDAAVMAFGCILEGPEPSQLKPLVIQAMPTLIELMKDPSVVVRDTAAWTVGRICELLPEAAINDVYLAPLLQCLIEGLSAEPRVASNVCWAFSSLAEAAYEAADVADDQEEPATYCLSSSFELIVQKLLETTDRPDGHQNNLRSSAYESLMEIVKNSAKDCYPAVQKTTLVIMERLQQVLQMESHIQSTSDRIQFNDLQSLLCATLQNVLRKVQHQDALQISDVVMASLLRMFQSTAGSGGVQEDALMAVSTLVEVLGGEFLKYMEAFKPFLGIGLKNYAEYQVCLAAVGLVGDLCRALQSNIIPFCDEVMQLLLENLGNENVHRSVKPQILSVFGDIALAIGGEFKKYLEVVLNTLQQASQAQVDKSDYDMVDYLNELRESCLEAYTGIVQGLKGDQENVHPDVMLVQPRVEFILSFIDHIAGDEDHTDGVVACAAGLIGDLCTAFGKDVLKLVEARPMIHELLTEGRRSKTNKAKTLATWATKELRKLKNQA
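FRET biosensor Rango (snurportin 1 IBB between N-terminal EYFP and C-terminal Cerulean), 50 nM in PBS/1 mM DTT/0.02% Tween-20/0.1% BSA, preincubated 5 min RT with compound; 0.125 microM importin beta added, 45 min RT, CFP/YFP FRET ratio read.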
GLA inh pH 4.5 – qHTS Assay for Inhibitors of Human alpha-Galactosidase at pH 4.5; Alpha-galactosidase A (Homo sapiens), P06280; purified enzyme, 4-MU-alpha-Gal fluorescence, pH 4.5; activity change, negative = inhibition, % at 105 µM; 230,000 tested, under 10 active; AID 1467, 2008; inconclusive = small, poorly fitted or top-dose-only inhibition, or a rising curve; inactive = flat fitted curve, though single readings scatter; no compound was filed as active;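 further: 0% = full activity with enzyme and -100% = basal without enzyme; dose as in the result columns while the protocol names 77 µM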
miR-21 FLuc – qHTS Assay for Modulators of miRNAs and/orActivators of miR-21; 340,000 tested, under 10 active; AID 2288, 2010; HeLa miR-21 FLuc reporter, luciferase, 48 h; Potency, µM (titrated, usually from 38.3 µM), for the others: top-dose reporter change, positive = more light; active = well fitted rising curve with a large enough effect; inconclusive = small, poorly fitted or top-dose-only effect; inactive = no such curve, though single readings can be large or run the other way;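 further: % of control where 0% means no effect; miR-21 action dims this reporter so a rising signal means less miR-21 action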
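HeLa miR-21-FLuc reporter line, endogenous miR-21; 2000 cells/well in DMEM/10% FBS; compound titration up to ~40uM final, 48 h, 37 degree Celsius; luciferase detection reagent, 15 min lysis, CCD luminescence.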
An asterisk follows results filed as active; ? = inconclusive; · = not tested or not shown; & = joins results of further samples. These rows are one share of the data; rates above refer to the full screens.

mol	Rango dissoc inh	Rango complex inh	GLA inh pH 4.5	miR-21 FLuc
CCn1cc([N+](=O)[O-])c(C(=O)N2CCCc3ccccc32)n1	1.3%	0.0%	·	-1.2%
CC(C)(C)c1csc(NC(=O)c2cccnc2Cl)n1	-4.0%	2.7%	·	·
O=C(COC(=O)c1cc[n+]([O-])cc1)Nc1ccc([N+](=O)[O-])cc1	-5.2%	-0.3%	-3.6	-0.4%
CCN(CC(=O)Nc1ccc(NC(C)=O)cc1)C(=O)C1CCCN(C(=O)c2ccc(Cl)cc2)C1 (stereo unspecified)	-0.3%	2.3%	·	·
COc1ccc(NC(=O)COC(=O)CCNS(=O)(=O)c2ccccc2)cc1OC	-0.7%	4.7%	3.3	-0.2%
CCOC(=O)c1ccc(NC(=O)CSc2nc(N3CCOCC3)nc(N3CCOCC3)n2)cc1	-5.0%	5.2%	·	-0.9%
COc1ccccc1CNC(=O)CN1CCC(NC(=O)c2ccccc2F)CC1	6.9%	2.6%	-3.0	-5.9%
COc1ccccc1C(=O)COC(=O)CN1C(=O)c2ccccc2C1=O	-1.0%	-0.5%	·	0.7%
COc1ccc(-n2c(=O)c3ccccc3n(CC(=O)NC3CCCCC3)c2=O)c(OC)c1	-11.2%	-0.7%	1.4	-2.3%
N#C/C(=C\c1ccc(-c2ccccc2[N+](=O)[O-])o1)C(=O)N1CCOCC1	-2.0%	-3.3%	5.4	-25.5%
COC(=O)c1cc(Nc2cc(C)c3ccc(O)cc3n2)cc(C(=O)OC)c1	11.2%	0.4%	0.5	-7.2%
CC1CC(C)CN(C(=O)COC(=O)c2ccc(Cl)nc2)C1 (stereo unspecified)	-0.4%	0.6%	·	·
O=C(NCCc1ccccc1)C(=O)NC1CCCCC1	2.4%	-1.8%	-2.1	-4.8%
O=C(Cn1cnc([N+](=O)[O-])n1)N/N=C/c1cc(Cl)ccc1O	-9.5%	-1.6%	-1.6	14.3%
COc1ccc2oc(C(=O)OCC(=O)Nc3ccc(C(=O)N(C)C)cc3)c(C)c2c1	-9.4%	0.9%	·	-9.4%
COc1ccc(Cl)cc1S(=O)(=O)N1CCC(C(=O)NCCc2ccccc2)CC1	-9.1%	1.1%	·	-10.0%
CSc1nc(C(=O)N2CCc3c([nH]c4ccccc34)C2c2ccccn2)cs1 (stereo unspecified)	-5.3%	-0.1%	-9.8	-5.2%
Cc1nc(-c2ccc(NC(=O)c3ccco3)cc2)cs1	-7.4%	-0.1%	·	26.3%
CC(C)c1nc(CNC(=O)c2cc(COc3c(F)cccc3F)on2)cs1	0.3%	4.7%	2.8	-0.1%
Cc1cc(C)cc(CC2CC(=O)N(c3ccc(Cl)cn3)C2=O)c1 (stereo unspecified)	-3.8%	-0.4%	5.1	0.3%
CCOC(=O)c1c(NC(=S)NCc2ccccc2)sc2c1CCN(C(=O)OCC)C2	-10.5%	-0.9%	-6.5	-9.3%
O=C(N1CCCCCC1)N1CCN(S(=O)(=O)c2ccccc2)CC1	-1.8%	-3.6%	-10.6	-3.1%
COc1ccccc1-c1nc2ccccc2c(=O)n1O	9.6%	1.8%	·	-1.7%
Cc1cc(Nc2cccc([N+](=O)[O-])c2)c2cccc(C)c2n1	13.3%	0.2%	-6.5	10.4%
COC(=O)C(O)(NC(=O)OCc1ccccc1)C(F)(F)F (stereo unspecified)	26.2%	7.7%	-1.0	-10.5%

Molecules above that contain an aryl thioether with sulfur outside any ring (two):
mol	Rango dissoc inh	Rango complex inh	GLA inh pH 4.5	miR-21 FLuc
CCOC(=O)c1ccc(NC(=O)CSc2nc(N3CCOCC3)nc(N3CCOCC3)n2)cc1	-5.0%	5.2%	·	-0.9%
CSc1nc(C(=O)N2CCc3c([nH]c4ccccc34)C2c2ccccn2)cs1 (stereo unspecified)	-5.3%	-0.1%	-9.8	-5.2%

Next part:
mol	Rango dissoc inh	Rango complex inh	GLA inh pH 4.5	miR-21 FLuc
O=C(O)c1ccccc1C(=O)NNc1ccc(Cl)cc1Cl	1.1%	8.8%	1.4	-9.7%
COc1ccc(S(=O)(=O)NCC2CCCN(Cc3ccccc3C)C2)cc1 (stereo unspecified)	0.3%	-0.9%	-2.2	-5.4%
Cc1cc(C)c(NC(=O)Cn2nnc(C(=O)Nc3ccc(F)cc3F)c2N)c(C)c1	16.6%	0.0%	·	0.6%&-3.5%
O=C(Oc1cccc2ccccc12)c1ccncc1	0.3%	0.2%	2.4	1.0%
COc1cccc(C(=O)N(Cc2cc3cc(C)ccc3[nH]c2=O)C(C)C)c1	6.3%	-1.3%	-9.3	-3.3%
COC(=O)[C@H](CC(C)C)NC(=O)N1CCN(c2cccc(C(F)(F)F)c2)CC1	-5.1%	-2.2%	5.1	-1.0%
c1ccc2c(SCc3cn4cccnc4n3)ncnc2c1	9.4%	-4.4%	12.2	-26.5%
CC(C)c1ccc(S(=O)(=O)N2CCN(C(=O)C3=COCCO3)CC2)cc1	4.4%	1.8%	·	·
CC(=O)c1cccc(NC(=O)CCNS(=O)(=O)c2cccc(C(C)=O)c2)c1	-22.5%	-4.7%	-6.9	4.7%
COCCNC(=O)C1CCCN(S(=O)(=O)c2cccc3nsnc23)C1 (stereo unspecified)	21.0%	-1.1%	·	-0.4%
Cc1cc(C)n(-c2ccc(NC(=O)C3CCCCN3C(=O)c3ccoc3C)cc2)n1 (stereo unspecified)	-4.5%	-0.1%	·	-3.1%
CC(=O)c1cccc(OCc2cc(C(=O)N(C)Cc3ccc(C)o3)no2)c1	-28.0%	?	·	-36.4%
Nc1cc(=O)nc(SCC(=O)N2CCN(c3ccccc3)CC2)n1-c1ccc(F)cc1	27.0%	0.3%	·	0.6%
CCOC(=O)/C=C1\SCC(=O)N1CC(=O)NCCOC	14.3%	3.3%	3.2	-0.2%
Oc1ccccc1C=Nc1cccc2ccccc12	11.8%	4.8%	·	0.8%
O=Cc1c[nH]c2ccc(NC(=O)OCc3ccccc3)cc12	-7.6%	1.7%	·	·
CCCNC(=O)c1c(CSc2ccccc2)noc1C(=O)NCc1ccccc1	7.4%	-0.5%	-4.3	7.5%
O=C(NC(=S)NN1CCCCC1c1cccnc1)c1ccc(Br)cc1 (stereo unspecified)	5.9%	0.1%	-7.8	-18.7%
CCOC(=O)C1=CN(CC2CCCCC2)CCC1=O	-2.1%	-1.2%	·	·
COc1ccc(OC)c(/C=N/NC(=O)c2ccc[n+](CC(=O)c3ccccc3)c2)c1	-15.7%	-2.4%	·	·
O=C(CSc1nnc(Cc2ccccc2)o1)NCCN1C(=O)CSC1=O	-3.3%	-0.4%	15.4	-7.3%
CC(=O)c1cccc(N(CC(=O)Nc2ccc(F)cc2F)S(C)(=O)=O)c1	-4.0%	-0.3%	6.2	-33.7%
Cn1ccnc1C(=O)c1cc(SCC(=O)N2CCOCC2)nc2ccccc12	-15.9%	-5.6%	-6.0	-3.9%
CCC(C)(C)C1CCc2[nH]nc(C(=O)NCCCNC(=O)OC(C)(C)C)c2C1 (stereo unspecified)	-6.3%	2.9%	·	·
COc1ccccc1CCNC(=O)CCNS(=O)(=O)c1ccc(NC(C)=O)cc1	10.1%	-5.5%	·	·

Later entries
mol	Rango dissoc inh	Rango complex inh	GLA inh pH 4.5	miR-21 FLuc
O=C(CCC(=O)Nc1ccc(Cl)cc1Cl)N/N=C/c1ccc([N+](=O)[O-])o1	-1.5%	1.4%	-9.6	?
CCN(CCn1cccn1)C(=O)c1ccc(OC2CCN(C(=O)COC)CC2)cc1	2.1%	-1.5%	·	-9.2%
COc1ccnc(NCc2cccc(C(F)(F)F)c2)c1C#N	-0.9%	-2.4%	-0.2	-10.8%
CCOc1ccc(NC(=O)CCNC(=O)Cn2ccc3ccccc3c2=O)cc1	7.7%	-0.3%	·	6.2%
O=C(NNc1nccc(C(F)(F)F)n1)Nc1cccc(Cl)c1	26.7%	4.5%	·	-2.9%
COc1cc(OC)cc(C(=O)NCCCN2CCOCC2)c1	1.3%	-2.7%	-10.7	-1.6%
Nc1nc2c(C(=O)N3CCOCC3)nnn2c2ccccc12	-16.9%	0.3%	-18.1	-29.8%
Cn1nc(CC(=O)Nc2cccc3ncccc23)c2ccccc2c1=O	-3.2%	-0.3%	3.5	11.0%
CC1CCN(c2nc3nonc3nc2Nc2ccc(F)cc2)CC1	4.6%	-3.4%	-1.9	13.4%
Cc1cc(NC(=O)c2ccoc2C)no1	0.4%	4.5%	-2.8	-16.5%
CCCN1C(=O)c2cc(C(=O)NCCc3cccc(C)c3)ccc2C1O (stereo unspecified)	5.1%	1.1%	-17.6	-21.4%
N#CCc1nn(-c2ccc(F)cc2)c(N)c1C#N	-16.8%	?	5.3	-6.3%
CCCc1cc(=O)[nH]c(NCCc2ccccc2)n1	-0.7%	-1.5%	·	-14.1%
O=C(CN1CCN(Cc2ccccc2)C1=O)NCc1ccc(Cl)cc1	-8.0%	0.4%	-2.5	-0.4%
O=C(CCn1c(=O)c2sccc2n(CC(=O)OCc2ccccc2)c1=O)NCc1ccccc1	-2.4%	3.4%	-5.0	3.6%
Cc1ccc(C(=O)CC2C(=O)N(c3ccccc3)C(=S)N2c2ccccc2)cc1 (stereo unspecified)	2.0%	-9.1%	-8.5	2.6%
CCOC(=O)C1(CCc2ccccc2)CCN(C(=O)c2ccoc2)CC1	5.0%	3.6%	3.4	-6.1%
Cc1ccc(NC(=O)CN2C(=O)NC3(CCCc4ccccc43)C2=O)c([N+](=O)[O-])c1 (stereo unspecified)	8.4%	1.8%	·	-6.8%
Cc1cccc(Nc2nnc(SCC(=O)NCc3cccs3)s2)c1C	-7.1%	-1.4%	-0.9	-1.3%
CCc1ccccc1NC(=O)CSc1nnc(-c2cc(C)[nH]n2)n1N	-17.5%	5.7%	·	-4.3%
CC(OC(=O)CCN1C(=O)c2cccc([N+](=O)[O-])c2C1=O)C(=O)Nc1cc(Cl)cc(Cl)c1 (stereo unspecified)	-4.4%	-0.1%	0.0	-0.2%
COc1ccc(C(=O)CCC(=O)N2CCN(c3ccc([N+](=O)[O-])cc3)CC2)cc1	-1.5%	3.2%	·	-0.3%
COc1ccc(F)c(CN2CCC(n3nccc3NC(=O)C3CCOC3)CC2)c1 (stereo unspecified)	-7.2%	-0.8%	·	1.5%
O=C(O)Cc1cc(=O)[nH]n(-c2ccccc2)c1=O	2.7%	?	·	·
C[C@H](NC(=O)N1CCC(Cc2ccccc2)CC1)C(=O)O	8.9%	4.0%	·	-4.2%

New compounds follow.
mol	Rango dissoc inh	Rango complex inh	GLA inh pH 4.5	miR-21 FLuc
Cc1c(Cl)cccc1NC(=S)N1CCC(C(N)=O)(N2CCCCC2)CC1	0.1%	1.0%	1.9	-0.7%
C=CCNC(=O)CSc1n[nH]c(-c2cc(Cl)ccc2OC)n1	-9.1%	5.7%	2.5	-0.6%
CSCCC1NC2(C(=O)Nc3c(C)cc(Cl)cc32)[C@@H]2C(=O)N(C3CCCC3)C(=O)[C@H]12 (stereo partly specified)	8.1%	3.5%	-6.6	12.4%
O=C(CN1C(=O)CC(c2ccco2)Sc2ccccc21)NCc1ccc2c(c1)OCO2 (stereo unspecified)	-13.1%	-1.0%	2.2	-4.6%
Cc1cc(O)cc2c1C(=O)/C(=C/c1ccco1)O2	?	?	·	-39.9%
C=CCn1c(COc2cccc3ccc(C)nc23)nnc1SCC(=O)O	-15.2%	-3.8%	6.5	-0.5%
O=C(CSC(=S)N1CCOCC1)c1cc2ccccc2oc1=O	?	?	·	-14.4%
COc1cc(Br)c(CCNC(=O)Cc2ccccc2)cc1OC	-6.1%	-1.6%	4.9	-13.6%
CNC(=S)N(C)/N=C1/C(=O)N(Cc2c(Cl)cccc2Cl)c2ccccc21	-15.6%	0.8%	·	·

High-throughput results: PubChem, National Center for Advancing Translational Sciences (NCATS)
